Assay outcomes deposited in PubChem BioAssay by National Center for Advancing Translational Sciences (NCATS).
AmpC nodet inh – AmpC beta-lactamase inhibition, detergent-free assay; P00811; AmpC nitrocefin hydrolysis, absorbance 480 nm, no detergent; potencies from a single point are estimates; Potency, µM (titrated, usually from 28.7 µM), without a hit: top-dose activity change, negative = inhibition; actives 1.8% (n = 71,000); active = falling curve, for most hits resting on a single point; inconclusive = weak or doubtful change; inactive = flat or rising curve; note: % of control where 0% means no effect; about half of the hits show no inhibition at the top dose; a quarter of the inactives give rising signals
Target sequence (P00811 whole entry, looked up): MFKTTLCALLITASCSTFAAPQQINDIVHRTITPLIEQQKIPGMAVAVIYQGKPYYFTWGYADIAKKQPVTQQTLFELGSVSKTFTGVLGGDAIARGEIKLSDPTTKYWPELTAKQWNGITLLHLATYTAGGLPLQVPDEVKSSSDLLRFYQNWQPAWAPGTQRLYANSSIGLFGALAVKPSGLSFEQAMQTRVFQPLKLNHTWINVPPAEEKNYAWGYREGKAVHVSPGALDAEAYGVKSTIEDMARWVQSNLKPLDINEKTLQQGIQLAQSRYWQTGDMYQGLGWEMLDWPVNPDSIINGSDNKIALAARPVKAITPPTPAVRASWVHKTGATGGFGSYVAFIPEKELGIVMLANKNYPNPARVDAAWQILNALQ
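AmpC in 20 mM phosphate buffer pH 7.0 was preincubated 15 min at room temperature with compounds. Nitrocefin (800 uM stock) was then added and hydrolysis followed at 480 nm every 20 s for 4 min.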
Active calls of the source: *; ? = inconclusive; [ ] = another dose, or the depositor's remark. Potency is the fitted concentration of half-maximal effect.

SMILES	AmpC nodet inh
CC1=C(C(=O)Nc2ccccc2)C(c2cccs2)n2nnnc2N1 (centres undefined)	-6%
COc1ccccc1CN1CCCC2(CCN(C(=O)c3cccn3C)CC2)C1	18%
CCOC(=O)N1CCN(C(=O)CC(=O)Nc2ccc3nc4n(c(=O)c3c2)CCCCC4)CC1	40%
COc1ccc(-c2nnc(NC(=O)c3cc(C)on3)s2)cc1	-11%
Cc1ccc(C(=O)NCc2ccco2)cc1S(=O)(=O)N1CCCCC1	-10%
Cc1cc([P+](=O)O)c(C)n1-c1ccc(Br)cc1	-24%
COCC(=O)Nc1cc(=O)n(C)c(=O)n1C	-1%
COc1ccc(Cc2ccc3[nH]c(=O)cc(C)c3c2)cc1S(=O)(=O)O	0%[5.75 µM]
NC(=O)CNC1CC(=O)N(CCc2ccccc2)C1=O (centres undefined)	11%
CCN(CC)c1ccc2oc(=O)c(C)nc2c1	17%
CCOCC(=O)Nc1cccc(OC)c1	6%
CCOC(=O)c1ccc(NC(=O)CN(C)S(=O)(=O)c2ccc(OC)cc2)cc1	-14%
COc1cccc(C(=O)NCC2CCCO2)c1 (centres undefined)	-8%
CC(C)C(=O)Nc1cccc(C(=O)NCCc2ccc(S(N)(=O)=O)cc2)c1	-1%
CC1(C)CC(=O)C(C=Nc2ccc3c(c2)OCO3)=C(O)C1	-6%
Cc1csc(NC(=O)CN2CCCCCC2)n1	3%
O=S(=O)(c1ccc(Br)s1)N1CCc2ccccc2C1	-8%
COCCNc1ncnc2ccc(-c3cccc(OC)c3)cc12	63%
O=c1ccc2c(OCCCCc3ccccc3)c3ccoc3cc2o1	?
COc1ccc(NC(=O)N2CC[C@@]3(CCCNC3)C2)cc1	4%
CCCCOCCCNC(=O)c1cccs1	3%
CCn1c(SCc2nc(-c3ccc(OC)c(OC)c3)no2)nnc1-c1cccs1	77%
COc1ccccc1CN1C(=O)CCC1(C)C(=O)NCc1cccnc1 (centres undefined)	0%
CN1CCN(C(=O)c2c(O)c3cccc4c3n(c2=O)CC4)CC1	-4%
O=C(OCC1CCCN2CCCCC12)c1ccc2c(c1)OCO2 (centres undefined)	-16%
O=C(CCn1nc(-c2ccccc2)ccc1=O)NCCCN1CCCCCC1	19%
Cc1nc2ccc3[nH]snc3c2n1	-3%
O=C(COc1ccc(-n2cnnn2)cc1)NCCc1ccc(F)cc1	1%
COc1ccc(-n2c(=O)[nH]cc(C(=O)Nc3ccc(NC(C)=O)cc3)c2=O)cc1	-6%
CN(C)/C=N/c1c(C#N)nnn1Cc1ccccc1	-3%
CCCC(c1nnnn1Cc1ccc(OC)cc1)N1CCN(c2ccccc2OC)CC1 (centres undefined)	86%
O=C(O)CCNC(=O)c1ccc(Br)o1	-6%
COc1ccc2[nH]c(=O)c(CN(C)C(=O)c3ccncc3)cc2c1	-6%
CCCn1c(SCC(=O)N2CCN(c3ccc(OC)cc3)CC2)nc2c1c(=O)n(C)c(=O)n2C	139%
Cc1ccccc1N(CC(=O)NC1CCCC1)C(=O)CS(=O)CC(=O)Nc1ccc2c(c1)OCO2 (centres undefined)	46%
COC(=O)c1ccc(C(NC(=O)OCc2ccccc2)/C(C)=C/[C@@H](C)C(=O)NCCN2CCOCC2)cc1 (some centres undefined)	136%
O=C(CN1C(=O)CCS(=O)(=O)c2ccccc21)Nc1cccc(F)c1	4%
COCCNC(=O)Cc1cn(C)c2ccccc12	-2%
COc1cc2[nH]c(=O)n(CCCCCC(=O)NCCCN3CCC(C)CC3)c(=O)c2cc1OC	28%
C=CCN(Cc1cc(OC)ccc1OC)S(=O)(=O)N(C)C	17%
CCCOc1ccc(/C(O)=C2/C(=O)C(=O)N(CCOC)C2c2cccnc2)cc1 (centres undefined)	-12%
O=C(CN(Cc1ccco1)C(=O)CNS(=O)(=O)c1ccc(F)cc1)NCCc1ccccc1	17%
CCCN1C2CCCC1CC(NC(=O)c1ccccc1OCC)C2 (centres undefined)	12%
O=C(CCn1nc(-c2ccccc2)c2ccccc2c1=O)NCC1CCCO1 (centres undefined)	29%
Cc1nn(C)c(N)c1C(O)(c1nccn1C)C(F)(F)F (centres undefined)	-5%
CCCC(C(=O)NC1CCCC1)N(CC1CCCO1)C(=O)c1snc(C(N)=O)c1N (centres undefined)	15%
O=C(Nc1sccc1C(=O)N1CCOCC1)c1cccnc1	10%
COCCN1C(=O)C(O)=C(C(C)=O)C1c1ccc(F)cc1 (centres undefined)	-18%
CCOC(=O)C1CCCN(c2c(NCCCN(C)Cc3ccccc3)c(=O)c2=O)C1 (centres undefined)	-4%
CC1=c2c(oc3cc(O)c(Nc4c(C)cc(O)cc4O)c(C)c23)=CC(=O)C1=Nc1c(C)cc(O)cc1O	-25%[5.75 µM]

Part of the list above, set out differently:
structure,AmpC nodet inh
Cc1nn(C)c(N)c1C(O)(c1nccn1C)C(F)(F)F (centres undefined),-5%
CCCC(C(=O)NC1CCCC1)N(CC1CCCO1)C(=O)c1snc(C(N)=O)c1N (centres undefined),15%
O=C(Nc1sccc1C(=O)N1CCOCC1)c1cccnc1,10%

Later entries.
SMILES	AmpC nodet inh
O=C(OCCCN1CCCCC1)c1ccc(O)cc1	-15%
O=C(COc1ncnc2c(Cl)cc(Cl)cc12)N1CCCCC1	20%
CCOC(=O)C1CCCN(c2c(NCCCN(CC)c3ccccc3)c(=O)c2=O)C1 (centres undefined)	28%
COc1ccc(NC(=O)N2CC3(CCN(C(C)=O)CC3)C2)cc1	-9%
O=C(NCCCN1CCOCC1)c1ccc(S(=O)(=O)N2CCOCC2)cc1	-11%
CCC(=O)Nc1ccc(C(=O)CSc2nnc(CNc3ccc(Cl)cc3)o2)cc1OC	36%
O=C(COc1ccc(Cl)cc1)N1CCN(Cc2ccc3c(c2)OCO3)CC1	79%[12.8 µM]
CC1CCCN(c2nc3c(c(=O)n(C)c(=O)n3C)n2Cc2ccccc2)C1 (centres undefined)	79%
CCOC(=O)c1c(N)n(Cc2ccccc2)c2nc3ccccc3nc12	15%
O=c1[nH]c(SCc2ccc(Cl)cc2)nc2c1CCC2	-18%

Gathered by group, the compounds so far containing a halogen
SMILES	AmpC nodet inh
Cc1cc([P+](=O)O)c(C)n1-c1ccc(Br)cc1	-24%
O=S(=O)(c1ccc(Br)s1)N1CCc2ccccc2C1	-8%
O=C(COc1ccc(-n2cnnn2)cc1)NCCc1ccc(F)cc1	1%
O=C(O)CCNC(=O)c1ccc(Br)o1	-6%
O=C(CN1C(=O)CCS(=O)(=O)c2ccccc21)Nc1cccc(F)c1	4%
O=C(CN(Cc1ccco1)C(=O)CNS(=O)(=O)c1ccc(F)cc1)NCCc1ccccc1	17%
Cc1nn(C)c(N)c1C(O)(c1nccn1C)C(F)(F)F (centres undefined)	-5%
COCCN1C(=O)C(O)=C(C(C)=O)C1c1ccc(F)cc1 (centres undefined)	-18%
O=C(COc1ncnc2c(Cl)cc(Cl)cc12)N1CCCCC1	20%
CCC(=O)Nc1ccc(C(=O)CSc2nnc(CNc3ccc(Cl)cc3)o2)cc1OC	36%
O=C(COc1ccc(Cl)cc1)N1CCN(Cc2ccc3c(c2)OCO3)CC1	79%[12.8 µM]
O=c1[nH]c(SCc2ccc(Cl)cc2)nc2c1CCC2	-18%

Next section
SMILES	AmpC nodet inh
COc1cccc(C2=NOC(C(=O)NCC3CCCO3)C2)c1 (centres undefined)	-2%
COc1ccc(C(=O)CCC(=O)N2CCN(c3ccc(N4CCOCC4)nn3)CC2)cc1	68%
CCCn1c(C)nc2c(N(CCN(C)C)Cc3ccccc3)nc(C)nc21	46%
CCCCOc1ccccc1C1C(C(=O)OC)=CN(CC)C=C1C(=O)OC	102%
Cc1sc2ncnc(NCCCn3ccnc3)c2c1C	-16%
CCCCCC[C@@H]([C@H](C)O)n1cnc2c(N)ncnc21	20%
CCOC(=O)C1=C(C)NC(=O)NC1c1ccoc1 (centres undefined)	5%
CCOc1ccc(S(=O)(=O)n2c(C)nc3ccccc32)cc1	4µM*[single pt active]
CN(c1ccccc1C(=O)N1CCCC1)S(C)(=O)=O	10%
Cc1ccc(O)c(C(=O)CC(=O)c2cccc(F)c2)c1	3%

Compounds shown so far with two or more sulfur atoms:
SMILES	AmpC nodet inh
O=S(=O)(c1ccc(Br)s1)N1CCc2ccccc2C1	-8%
CCn1c(SCc2nc(-c3ccc(OC)c(OC)c3)no2)nnc1-c1cccs1	77%

Next structures:
SMILES	AmpC nodet inh
O=C(O)CCC1=C2c3ccccc3CCN2C(=O)CC1	0%
Cc1cc(-c2nnc(SCc3cccnc3)o2)no1	-1%
Cc1ccc(NC(=O)NC2CCN(CC(=O)Nc3nccs3)CC2)cc1	-6%
CCOC(=O)NC(Nc1cc(C)ccn1)(C(F)(F)F)C(F)(F)F	-2%
Cn1c(SCC(=O)NCC2CCCO2)nc2c([nH]c3ccccc32)c1=O (centres undefined)	1%
CNC(C)(C)Cc1ccccc1	-6%[12.8 µM]
COc1cc2c(cc1OC)C1Cc3ccc(OC)c(OC)c3CN1CC2 (centres undefined)	42%
CC(C)CC(=O)N1CCN(C(=O)c2cccc(F)c2)CC1	7%
Cc1cc(C(=O)NCC(c2ccco2)N(C)C)no1 (centres undefined)	6%
CCCCc1ccc(NC(=O)N[C@H](C(=O)O)C(C)CC)cc1 (some centres undefined)	-14%
CCOc1nc(-c2ccccc2)ccc1-c1noc(-c2cccnc2)n1	19%
O=C(CSc1nnc(-c2ccccc2)n1Cc1ccccc1)N1CCOCC1	56%
O=C(Nc1ccccc1C(=O)NCc1cccnc1)c1ccco1	-2%
CCCCCCC(=O)Nc1ccc(Cl)cn1	-1%
Nc1nc2c(ncn2COCCO)c(=O)[nH]1	-9%[12.8 µM]
COc1ccc2[nH]c(C(=O)c3ccccc3)cc2c1	-7%
CCOc1ccccc1/C=C(\C#N)C(N)=O	1%[5.75 µM]
O=c1c2ccccc2nnn1Cc1nnc(-c2ccccc2Br)o1	-1%
COCCN1CCn2c(nc3cc(NC(=O)c4ccc(OC)cc4)ccc32)C1	42%
Cc1ccc(CN2C(=O)CCC2C(=O)NC2CCCC2)cc1 (centres undefined)	10%
COc1ccc(C2C(C#N)=C(N)N3C(=C2C#N)Sc2ccccc23)cc1 (centres undefined)	-7%
CCCCn1c(C(C)O)nc2ccccc21 (centres undefined)	6%
CCCN(CCC)CCNC(=O)Cn1cnc2sc(C)c(S(=O)(=O)N3CCOCC3)c2c1=O	-12%
CC1=CC(=O)C2=C(C)C[C@H](O)[C@@H]3[C@@H](OC(=O)[C@H]3C)[C@H]12	2%
NC(=O)CNC(=O)C1CCCc2c1[nH]c1ccc(Cl)cc21 (centres undefined)	-7%
COc1ccc(OC)c(NC(=O)CN2C(=O)c3ccccc3S2(=O)=O)c1	0%
COC(=O)C(NC(=O)c1ccccc1)=C1CCCCC1	9%
CCOC(=O)C1=C(CS(=O)(=O)c2ccc(F)c(C)c2)NC(=O)NC1c1ccc(O)c(O)c1 (centres undefined)	4µM*[single pt active]
O=C(NC(Cc1ccc2c(c1)OCO2)C(=O)N1CCCC1C(=O)O)c1ccccc1 (centres undefined)	13%
COC(=O)C1=CN(CCCN2CCCC2=O)C=C(C(=O)OC)C1c1ccccc1C(F)(F)F	123%

Taken from the listing (3 entries):
SMILES	AmpC nodet inh
CC1=C(C(=O)Nc2ccccc2)C(c2cccs2)n2nnnc2N1 (centres undefined)	-6%
COc1ccccc1CN1CCCC2(CCN(C(=O)c3cccn3C)CC2)C1	18%
CCOC(=O)N1CCN(C(=O)CC(=O)Nc2ccc3nc4n(c(=O)c3c2)CCCCC4)CC1	40%

(listing goes on)
SMILES	AmpC nodet inh
COc1ccc(C(=O)Nc2ccc(N3CCOCC3)cc2)cc1OC	-8%
CC(C(=O)O)N1C(=O)c2cccc3cccc1c23 (centres undefined)	-3%
CSc1nc(C)cc(NC(N)=O)n1	0%
Oc1ccc(Cl)c(Cl)c1Cl	-13%
Cc1cc(=O)oc2cc(OC(C)C(=O)N3CCCc4ccccc43)ccc12 (centres undefined)	50%
Cc1ccnc(N2C(=O)c3ccccc3C2Nc2ccc3c(c2)OCCO3)c1 (centres undefined)	60%
CCOC(=O)c1cc2oc(C)cc2n1CC(=O)OC1CCCCC1	27%
Cc1ccc2nc(-c3ccccn3)cc(C(=O)N3CCN(c4ncccn4)CC3)c2c1	118%
CC(C(=O)NC(=O)NC1CCCCC1)N1CCN(c2ccccn2)CC1 (centres undefined)	92%
O=C(CCN1C(=O)c2ccccc2C1=O)Nc1sc2c(c1C(=O)NCc1ccco1)CCCC2	9%
O=C(NCCO[N+](=O)[O-])c1cccnc1	3%
CCCSc1nc(C)c(-c2csc(C(C#N)=C3CCCC3)n2)cc1C#N	13µM*
Cc1c(Cl)cccc1-n1nnnc1-c1cccs1	-7%
CCCC[C@H]1C[C@@H]1[C@@H]1N(P(=O)(c2ccccc2)c2ccccc2)C[C@@](O)(c2ccccc2)CC12CC2	20%
COc1ccccc1N1CCN(C(=O)c2oc3cc(C)c(C)cc3c2C)CC1	116%
Cc1c(C(=O)c2no[n+]([O-])c2C(=O)c2cnn(C)c2C)cnn1C	18%
O=C(Oc1ccccc1)N1CCC2(CCCN(c3ncccn3)C2)CC1	76%
COc1cccc2c1C(=O)c1c(O)c3c(c(O)c1C2=O)C[C@](O)(/C(C)=N\O)C[C@@H]3O[C@H]1C[C@H](N)[C@@H](O)[C@H](C)O1	23%[5.75 µM]
COc1ccc(NC(C)=O)cc1NC(C)C(=O)Nc1ccccc1F (centres undefined)	12%
COc1cccc(C2CC(=O)Nc3cc4c(cc32)OCCO4)c1OC(C)C (centres undefined)	20%
O=C(CCNS(=O)(=O)c1cccs1)Nc1nccs1	-8%
Cc1ccc(NC(=O)c2oc3ccccc3c2NC(=O)c2ccc3c(c2)OCO3)cc1	-9%
COc1ccc(N2Cc3cccc(C(=O)NC(C)CCc4ccco4)c3C2=O)cc1 (centres undefined)	109%

Only part of the results is shown; count on the stated rates, not on these rows.
